From PubChem BioAssay
PKD1 kinase inh: inhibitors of human PKD1 kinase, biochemical, fluorescence polarization; Serine/threonine-protein kinase D1 (Homo sapiens), Q15139; PKD1 kinase fluorescence polarization assay; inhibition, %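 (about 10 µM by stock and volumes)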; actives 0.056% (n = 200,000);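 active means inhibition of 50% or more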;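 further: controls were vehicle for no effect and a reference inhibitor for full effect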
Target sequence (Q15139 whole entry, looked up): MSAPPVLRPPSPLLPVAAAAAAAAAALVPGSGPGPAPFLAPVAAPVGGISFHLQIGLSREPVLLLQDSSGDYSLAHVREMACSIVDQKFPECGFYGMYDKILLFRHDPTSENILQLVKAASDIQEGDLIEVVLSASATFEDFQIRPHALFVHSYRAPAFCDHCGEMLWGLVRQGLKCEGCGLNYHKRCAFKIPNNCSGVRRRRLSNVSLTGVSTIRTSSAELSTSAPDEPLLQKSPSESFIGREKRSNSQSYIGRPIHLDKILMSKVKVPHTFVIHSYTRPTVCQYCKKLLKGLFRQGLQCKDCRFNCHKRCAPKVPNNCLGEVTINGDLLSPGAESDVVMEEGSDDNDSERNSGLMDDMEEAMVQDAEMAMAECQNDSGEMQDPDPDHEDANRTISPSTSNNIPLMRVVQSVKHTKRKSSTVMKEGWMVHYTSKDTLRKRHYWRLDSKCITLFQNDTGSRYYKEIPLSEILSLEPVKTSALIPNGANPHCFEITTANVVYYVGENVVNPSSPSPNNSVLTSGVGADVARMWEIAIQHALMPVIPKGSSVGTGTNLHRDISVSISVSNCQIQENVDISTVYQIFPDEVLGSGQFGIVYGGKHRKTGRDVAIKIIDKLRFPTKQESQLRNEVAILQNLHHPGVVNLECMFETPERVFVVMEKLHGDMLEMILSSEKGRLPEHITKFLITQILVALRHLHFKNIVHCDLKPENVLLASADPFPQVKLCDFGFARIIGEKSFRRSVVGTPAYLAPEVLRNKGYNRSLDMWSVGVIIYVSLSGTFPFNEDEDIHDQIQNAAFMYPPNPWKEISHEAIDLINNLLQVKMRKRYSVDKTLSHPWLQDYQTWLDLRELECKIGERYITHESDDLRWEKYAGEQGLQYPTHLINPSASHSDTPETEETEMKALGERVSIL
HSV replic up: enhancers of HSV replication in host cells, fold increase, host cell viability | HSV replication augmentation in cells | actives 0.005% (n = 220,000) | maximum fold increase;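 active means peak rise of 1.5-fold or more in the series; inconclusive means self-fluorescent or not available for retest; tested in PC3 cells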;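 further: first round at 10 µM; read as green reporter fluorescence; hits show the peak of a series up to 25 µM; 1 = signal of infected wells without compound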
INS promoter inh: inhibitors of insulin promoter-driven GFP, primary screen, imaging, TRM-6 cells (human fetal islet line), eGFP reporter, cell count; reporter expression induced with tamoxifen; inhibition, % at 2 µM; actives 0.9% (n = 130,000);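 active means inhibition above the mean plus 3 SD, with well images judged a real hit on visual review, cut at about 60% in these data, passing the limit was not always enough; inconclusive means inhibition over the cutoff but images rejected on review; inactive means inhibition not above the cutoff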
GALR2 ag: GALR2 receptor agonists, primary screen, cell-based | Galanin receptor type 2 (Homo sapiens), O43603 | activation, %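 (tested at 5 µM)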 | AID 803, 2007 | actives 0.48% (n = 140,000) | GALR2-expressing cells, agonist activation read-out;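 active means above mean plus 3 SD of all compounds, about 5% in these data, not always enough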;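 further: 0% = vehicle buffer wells and 100% = reference agonist at full effect; tested in CHO reporter cells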
RGS16-Gao HTS: modulators of RGS16 binding to Galphao, primary screen, biochemical, human proteins, multiplexed bead flow cytometry; Regulator of G-protein signaling 16 (Homo sapiens) + Guanine nucleotide-binding protein …; actives 0.38% (n = 220,000); binding response (% of control), % at 10 µM; AID 1441, 2008; bead-based flow cytometry RGS16-Galphao binding, fluorescence; actives lie on both sides;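 active means below 25% or above 175%, edge rows of some plates excepted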;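 further: Galphao activated by GDP with aluminum fluoride before binding; 100% = wells without compound and 0% = beads without RGS; some results beyond the cut were filed as inactive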
INS promoter inh cell count: also measured in INS promoter inh; calls as there; normalized cell count, %; measured here: cell count, toxicity; reference of the scale not given here;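 cells exposed to compound for 48 h; stained nuclei by imaging scaled within each plate; lower means fewer cells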
HSV replic up primary fold: second read-out of HSV replic up, no call of its own (marks repeat the call); fold increase; compound at 10 µM; measured here: primary screen fold increase 10 uM; tested in PC3 cells;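 GFP signal in the first replicate; 1 = infected wells without compound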
* marks the source's active call; other numbers are inactive results.

`COCCn1nnnc1C(c1cc2ccc(C)cc2[nH]c1=O)N(Cc1ccco1)Cc1cccs1` (stereo not given) gave PKD1 kinase inh 0, HSV replic up inactive, GALR2 ag -0.5, RGS16-Gao HTS 124 and HSV replic up primary fold 0.92.
CC1CCCCC12NC(=O)N(CC(=O)Nc1sc3c(c1C(N)=O)CCC3)C2=O (stereo not given) was read as PKD1 kinase inh -2, GALR2 ag -0.6 and RGS16-Gao HTS 94.
For O=C(O)Cc1sc(-c2ccc(Cl)cc2)nc1-c1ccccc1 the results were PKD1 kinase inh 9, HSV replic up inactive, INS promoter inh 16, GALR2 ag -3.2, RGS16-Gao HTS 98, INS promoter inh cell count 130 and HSV replic up primary fold 0.83.
`C=CCNC(=O)CSc1nc2scc(-c3ccco3)c2c(=O)n1CC=C` gave HSV replic up inactive, RGS16-Gao HTS 98 and HSV replic up primary fold 0.96.
For c1ccc(CNc2ncnc3sc4c(c23)CCC4)nc1 the results were PKD1 kinase inh 2, HSV replic up inactive, INS promoter inh -41, GALR2 ag -0.9, RGS16-Gao HTS 102, INS promoter inh cell count 92 and HSV replic up primary fold 0.77.
For O=C(CN1C(=O)c2ccccc2C1=O)NCc1ccc(N2CCOCC2)cc1 the results were HSV replic up inactive, RGS16-Gao HTS 90 and HSV replic up primary fold 1.
Screening Cc1ccc(C(=O)N2CC(=O)Nc3ccccc32)o1 returned PKD1 kinase inh -2, HSV replic up inactive, INS promoter inh -47, GALR2 ag -0.1, RGS16-Gao HTS 103, INS promoter inh cell count 73 and HSV replic up primary fold 0.94.
For COc1ccc(C(=S)N2CCCC2)cc1OC the results were PKD1 kinase inh -1, HSV replic up inactive, INS promoter inh -7, GALR2 ag -1.8, RGS16-Gao HTS 99, INS promoter inh cell count 108 and HSV replic up primary fold 0.95.
Screening NC(=S)c1ncc(C(F)(F)F)cc1Cl returned HSV replic up inactive, RGS16-Gao HTS 100 and HSV replic up primary fold 0.93.
Screening CCOC(=O)C1CCN(S(=O)(=O)c2ccc3[nH]c(=O)c(=O)[nH]c3c2)CC1 returned PKD1 kinase inh 0, HSV replic up inactive, RGS16-Gao HTS 99 and HSV replic up primary fold 0.92.
For Cn1c(CO)nc2cc(N)ccc21 the results were PKD1 kinase inh -25, HSV replic up inactive, GALR2 ag -2.0, RGS16-Gao HTS 101 and HSV replic up primary fold 0.95.
`CC(C)c1ccc(NS(=O)(=O)c2ccc(N3C(=O)CCC3=O)cc2)cc1` gave HSV replic up inactive, RGS16-Gao HTS 95 and HSV replic up primary fold 0.77.
`O=C(Nc1ccc2c(c1)OCCO2)c1ccc(Br)c(S(=O)(=O)N2CCOCC2)c1` gave PKD1 kinase inh -22, HSV replic up inactive, INS promoter inh 0, GALR2 ag -1.8, RGS16-Gao HTS 78, INS promoter inh cell count 83 and HSV replic up primary fold 0.93.
`Cc1cc(C)cc(N(C(=O)c2csnn2)C(C(=O)NC(C)(C)C)c2ccccn2)c1` (stereo not given) gave PKD1 kinase inh -7, HSV replic up inactive, RGS16-Gao HTS 103 and HSV replic up primary fold 1.
Cc1ccc(NC(=O)c2ccncc2)cc1S(=O)(=O)N(C)C was read as PKD1 kinase inh -2, HSV replic up inactive, GALR2 ag -0.3, RGS16-Gao HTS 98 and HSV replic up primary fold 1.2.
`CCCCCCN=C(C)C1=C(O)C(C(=O)OC)C(C)(C)CC1=O` (stereo not given) gave PKD1 kinase inh 4, HSV replic up inactive, INS promoter inh -45, GALR2 ag -0.6, RGS16-Gao HTS 110, INS promoter inh cell count 31 and HSV replic up primary fold 1.
For CCN(CC)C(=O)C(=O)N/N=C/c1ccc(Cl)cc1Cl the results were PKD1 kinase inh 0, HSV replic up inactive, INS promoter inh 7, RGS16-Gao HTS 102, INS promoter inh cell count 87 and HSV replic up primary fold 0.78.
`O=C(CSc1ccccc1)Nc1ccc(C(=O)Nc2cccc(O)c2)cc1` gave PKD1 kinase inh -1, HSV replic up inactive, RGS16-Gao HTS 109 and HSV replic up primary fold 0.87.
For O=C1c2ccccc2C(=O)N1CCC(=O)N1CCc2ccccc21 the results were PKD1 kinase inh 5, INS promoter inh 0, GALR2 ag -2.6 and INS promoter inh cell count 140.
`CC(C)N=C1CC(C)(C)CC(=O)/C1=C(/O)CCCN1C(=O)c2ccccc2C1=O` gave PKD1 kinase inh -6, HSV replic up inactive, RGS16-Gao HTS 104 and HSV replic up primary fold 0.89.
For Cc1c(Cl)cccc1NC(=O)CSC(N)=O the results were PKD1 kinase inh -6, HSV replic up inactive, RGS16-Gao HTS 98 and HSV replic up primary fold 0.93.
For C/C(=N\Nc1ccc([N+](=O)[O-])cc1)c1cc2ccccc2o1 the results were PKD1 kinase inh -5, HSV replic up inconclusive, INS promoter inh -347, RGS16-Gao HTS 101 and INS promoter inh cell count 127.
`O=C1c2ccccc2C(O)(c2ncc[nH]2)N1C1CCCCC1` (stereo not given) gave PKD1 kinase inh 2, HSV replic up inactive, INS promoter inh 0, GALR2 ag -0.8, RGS16-Gao HTS 102, INS promoter inh cell count 130 and HSV replic up primary fold 0.96.
c1ccc2c(c1)nnn2CNc1nccs1 was read as PKD1 kinase inh 2, HSV replic up inactive, INS promoter inh -21, GALR2 ag -2.3, RGS16-Gao HTS 84, INS promoter inh cell count 120 and HSV replic up primary fold 0.91.
`O=C(NCCc1c[nH]c2ccccc12)C(=O)NCC1OCCN1S(=O)(=O)c1cc(F)ccc1F` (stereo not given) gave HSV replic up inactive, RGS16-Gao HTS 86 and HSV replic up primary fold 1.1.
`CCCCCCC(=O)N(O)C1CC(=O)N(c2ccc(F)cc2)C1=O` (stereo not given) gave HSV replic up inactive, RGS16-Gao HTS 91 and HSV replic up primary fold 1.2.
Cn1c(=O)c2c(nc(CN3CCN(C(=O)c4ccco4)CC3)n2Cc2ccccc2)n(C)c1=O was read as PKD1 kinase inh -1, HSV replic up inactive, INS promoter inh 19, GALR2 ag -0.9, RGS16-Gao HTS 125, INS promoter inh cell count 136 and HSV replic up primary fold 1.
Screening CC(C)Cn1c(N2CCN(C(=O)/C=C/c3ccccc3)CC2)nc2ccccc21 returned PKD1 kinase inh 2, HSV replic up inactive, INS promoter inh 53, RGS16-Gao HTS 98, INS promoter inh cell count 76 and HSV replic up primary fold 1.
For CC(C)(C)n1ncc2c(=O)n(Cc3ccc(Cl)cc3Cl)cnc21 the results were PKD1 kinase inh -56, HSV replic up inactive, INS promoter inh 13, GALR2 ag -2.0, RGS16-Gao HTS 89, INS promoter inh cell count 109 and HSV replic up primary fold 1.1.
`Cn1c(N)c(C(=O)COC(=O)C2CCC(C(C)(C)C)CC2)c(=O)n(C)c1=O` (stereo not given) gave PKD1 kinase inh -6, HSV replic up inactive, INS promoter inh -13, GALR2 ag -1.1, RGS16-Gao HTS 102, INS promoter inh cell count 88 and HSV replic up primary fold 1.

5 compounds out of the list, sorted by count of non-hydrogen atoms, lowest first:
c1ccc2c(c1)nnn2CNc1nccs1 was read as PKD1 kinase inh 2, HSV replic up inactive, INS promoter inh -21, GALR2 ag -2.3, RGS16-Gao HTS 84, INS promoter inh cell count 120 and HSV replic up primary fold 0.91.
`O=C1c2ccccc2C(O)(c2ncc[nH]2)N1C1CCCCC1` (stereo not given) gave PKD1 kinase inh 2, HSV replic up inactive, INS promoter inh 0, GALR2 ag -0.8, RGS16-Gao HTS 102, INS promoter inh cell count 130 and HSV replic up primary fold 0.96.
`CCCCCCN=C(C)C1=C(O)C(C(=O)OC)C(C)(C)CC1=O` (stereo not given) gave PKD1 kinase inh 4, HSV replic up inactive, INS promoter inh -45, GALR2 ag -0.6, RGS16-Gao HTS 110, INS promoter inh cell count 31 and HSV replic up primary fold 1.
For O=C1c2ccccc2C(=O)N1CCC(=O)N1CCc2ccccc21 the results were PKD1 kinase inh 5, INS promoter inh 0, GALR2 ag -2.6 and INS promoter inh cell count 140.
Screening CC(C)Cn1c(N2CCN(C(=O)/C=C/c3ccccc3)CC2)nc2ccccc21 returned PKD1 kinase inh 2, HSV replic up inactive, INS promoter inh 53, RGS16-Gao HTS 98, INS promoter inh cell count 76 and HSV replic up primary fold 1.

Retrieved by structure from the entries so far (2):
For Cc1c(Cl)cccc1NC(=O)CSC(N)=O the results were PKD1 kinase inh -6, HSV replic up inactive, RGS16-Gao HTS 98 and HSV replic up primary fold 0.93.
Cn1c(=O)c2c(nc(CN3CCN(C(=O)c4ccco4)CC3)n2Cc2ccccc2)n(C)c1=O was read as PKD1 kinase inh -1, HSV replic up inactive, INS promoter inh 19, GALR2 ag -0.9, RGS16-Gao HTS 125, INS promoter inh cell count 136 and HSV replic up primary fold 1.

The list continues:
CCN1CCN(CCCNC(=O)C2c3ccccc3C(=O)N(C)C2c2ccc(OC)cc2)CC1 (stereo not given) was read as PKD1 kinase inh 1, HSV replic up inactive, INS promoter inh -16, GALR2 ag -2.6, RGS16-Gao HTS 96, INS promoter inh cell count 130 and HSV replic up primary fold 0.8.
`O=C(Nc1ccc2c(c1)oc1ccc(S(=O)(=O)N3CCCC3)cc12)C1CC1` gave PKD1 kinase inh -4, HSV replic up inactive, INS promoter inh -11, GALR2 ag 1.3, RGS16-Gao HTS 102, INS promoter inh cell count 64 and HSV replic up primary fold 0.79.
COC(=O)CSc1nc2ccccc2c(=O)n1C was read as PKD1 kinase inh 8, HSV replic up inactive, GALR2 ag -0.4, RGS16-Gao HTS 84 and HSV replic up primary fold 0.67.
`O=C(N/N=C/c1ccco1)c1ccc(NC(=O)c2ccccc2Cl)cc1` gave PKD1 kinase inh -4, HSV replic up inactive, INS promoter inh 29, RGS16-Gao HTS 100, INS promoter inh cell count 61 and HSV replic up primary fold 1.1.
For COc1cc(C#N)ccc1OCC(=O)Nc1ccc(C)c(S(=O)(=O)N2CCOCC2)c1 the results were PKD1 kinase inh 3, HSV replic up inactive, RGS16-Gao HTS 102 and HSV replic up primary fold 1.
Screening O=C(COC(=O)c1cccc(S(=O)(=O)N2CCc3ccccc3C2)c1)NCc1ccco1 returned PKD1 kinase inh 0, HSV replic up inactive, GALR2 ag -2.0, RGS16-Gao HTS 57 and HSV replic up primary fold 0.94.
Screening Cc1nn(-c2ccccc2)c(C)c1NC(=O)COc1ccc(Cl)cc1Cl returned PKD1 kinase inh -5, HSV replic up inactive, INS promoter inh -4, GALR2 ag 0.3, RGS16-Gao HTS 114, INS promoter inh cell count 120 and HSV replic up primary fold 0.88.
`NC(=O)[C@H]1CC2(CC(c3cccc(NC(=O)COc4ccc(Cl)cc4)c3)=NO2)CN1C(=O)[C@H]1CCC(=O)N1` (stereo not given in full) gave HSV replic up inactive, RGS16-Gao HTS 93 and HSV replic up primary fold 1.1.
`CSCCC(NC(=O)c1ccccc1)C(=O)OCC(=O)Nc1ccc(C)c(Cl)c1` (stereo not given) gave PKD1 kinase inh -2, HSV replic up inactive, INS promoter inh -14, GALR2 ag -3.8, RGS16-Gao HTS 103, INS promoter inh cell count 88 and HSV replic up primary fold 0.91.
For CN(C)S(=O)(=O)c1ccc(NC(=O)COC(=O)c2ccccn2)cc1 the results were PKD1 kinase inh -2, HSV replic up inactive, INS promoter inh 66, GALR2 ag -2.8, RGS16-Gao HTS 106, INS promoter inh cell count 65 and HSV replic up primary fold 1.
For C[C@@H](C(=O)Nc1nc2ccc(F)cc2s1)N1C(=O)C2CC=CCC2C1=O (stereo not given in full) the results were PKD1 kinase inh -8, HSV replic up inactive, RGS16-Gao HTS 110 and HSV replic up primary fold 0.98.
`COc1ccccc1-n1ccnc1SCC(=O)NC1CCCC1` gave PKD1 kinase inh 5, HSV replic up inactive, INS promoter inh 14, RGS16-Gao HTS 97, INS promoter inh cell count 89 and HSV replic up primary fold 0.93.
CC12CC(NC(=O)N1CCc1ccccc1)c1cc(Cl)ccc1O2 (stereo not given) was read as PKD1 kinase inh -7, HSV replic up inactive, INS promoter inh 46, GALR2 ag -0.4, RGS16-Gao HTS 101, INS promoter inh cell count 114 and HSV replic up primary fold 1.
Screening Cc1sc2ncn(CCn3cnc4sc(C)c(C)c4c3=O)c(=O)c2c1C returned PKD1 kinase inh -9, HSV replic up inactive, INS promoter inh -438, GALR2 ag 0.5, RGS16-Gao HTS 104, INS promoter inh cell count 19 and HSV replic up primary fold 0.98.
Screening COc1ccccc1NC(=S)NCCc1ccc(Cl)cc1 returned PKD1 kinase inh -4, HSV replic up inactive, INS promoter inh 35, GALR2 ag -1.0, RGS16-Gao HTS 94, INS promoter inh cell count 113 and HSV replic up primary fold 0.92.
